T cruzi inh – T. cruzi replication inhibition. AID 1885. inhibition, % (no concentration beside the values). T. cruzi beta-gal in NIH3T3, luminescence, 90 h. actives 1.4% (n = 300,000);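 active = mean inhibition across valid replicates above about 55%, limit read from the data; inconclusive = mean below that limit but half or more replicates reach it; inactive = mean below it, under half of replicates reach it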;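 note: signal also drops with host cell toxicity which is not excluded here; 0% = plate median of DMSO wells and 100% = zero luminescence signal; higher percent means less beta-gal luminescence so fewer parasites; stock transfer was 50 nL into about 50 µL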
Calb FLC – affects C. albicans growth with fluconazole. growth inhibition, % (concentration not given with the values). C. albicans CaCi-2 (fluconazole-resistant clinical isolate) + fluconazole, Alamar Blue growth, 48 h. actives 0.57% (n = 300,000);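 active = most replicates above 75%; inconclusive = exactly half above 75%; inactive = most below 75%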;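 note: all wells also contain fluconazole at 8 µg/ml as a sub-toxic cotreatment; 0% = median of DMSO wells and 100% = median of geldanamycin control wells; wells of about 8 µL received 7.5 nL stock; the first replicate is given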
rRNA inh HTS – selective bacterial rRNA inhibition in E. coli | E. coli WT GFP vs humanized-ribosome RFP mutants, fluorescence, 24 h; stronger effect = lower value; DMSO median 0, no signal -100 | GFP signal change (wild-type ribosome), % (no concentration beside the values) | actives 1.6% (n = 350,000) | AID 720706;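 active = significant combined selectivity score with lowered wild-type GFP, culture density cut under 30%, mutant RFP and density less affected; inactive = any of these conditions unmet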; note: one replicate is shown; some compounds called inactive have numbers as strong as hits
Beta apoptosis – blocks beta cell apoptosis. INS-1E cytokine-induced death, ATP luminescence, 48 h; percent of positive-control rescue, neutral wells zero. protection from apoptosis, % (no concentration beside the values). actives 0.8% (n = 300,000). AID 435005;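 active = all replicates at 75% or more, or half of them and the mean; inconclusive = half reach 75% but not the mean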;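 note: 0% = cytokine-treated negative control wells and 100% = positive control rescue; higher means more ATP so stronger rescue from cytokine killing; wells of about 40 µL received 100 nL stock; the first replicate is given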
Beta2AR agonist – human beta-2 adrenergic receptor agonism by FAP | P07550 | Am2.2-beta2AR cells, FAP receptor internalization, flow cytometry; reference of the scale not given here | response, % (concentration not given with the values) | actives 0.43% (n = 340,000) | AID 504454;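 active = response above a set limit, near 3 SD of response in nonfluorescent compounds, cut at about 42% in these data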;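 note: stock transfer was 100 nL into about 11 µL; a reference agonist was the positive control; negative values mostly stem from fluorescent compounds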
A1 inh – inhibitors of the anti-apoptotic protein A1, read as caspase activation. MEF A1-2A-BIM cells, Caspase-Glo 3/7 luminescence, 3 h; percent of clofoctol response, vehicle zero. caspase activation, % (no concentration beside the values). actives 0.066% (n = 330,000). AID 2462;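 active = over half of replicate activation scores above 10%, or exactly half above 10 with the replicate mean above 10; inconclusive = replicate mean below 10 yet half the replicates above 10; inactive = over half of replicates below 10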;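 note: wells of about 30 µL received 50 nL stock; many hits fall short of the cut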
LANA-H2A inh – blocks KSHV LANA binding to histone H2A/H2B; Q9QR71; cell-free LANA-H2A/H2B peptide, fluorescence polarization; actives 0.6% (n = 320,000); inhibition, % (no concentration beside the values); in the data active = inhibition mostly above about 10%, no sharp cut-off; inactive = mostly below about 6.7%;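 note: stock transfer was 7.5 nL into about 10 µL; 0% = median of vehicle wells and 100% = median of positive control wells; one replicate is shown; the record names a cut of 25% in any replicate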
Target sequence (Q9QR71 whole entry, looked up): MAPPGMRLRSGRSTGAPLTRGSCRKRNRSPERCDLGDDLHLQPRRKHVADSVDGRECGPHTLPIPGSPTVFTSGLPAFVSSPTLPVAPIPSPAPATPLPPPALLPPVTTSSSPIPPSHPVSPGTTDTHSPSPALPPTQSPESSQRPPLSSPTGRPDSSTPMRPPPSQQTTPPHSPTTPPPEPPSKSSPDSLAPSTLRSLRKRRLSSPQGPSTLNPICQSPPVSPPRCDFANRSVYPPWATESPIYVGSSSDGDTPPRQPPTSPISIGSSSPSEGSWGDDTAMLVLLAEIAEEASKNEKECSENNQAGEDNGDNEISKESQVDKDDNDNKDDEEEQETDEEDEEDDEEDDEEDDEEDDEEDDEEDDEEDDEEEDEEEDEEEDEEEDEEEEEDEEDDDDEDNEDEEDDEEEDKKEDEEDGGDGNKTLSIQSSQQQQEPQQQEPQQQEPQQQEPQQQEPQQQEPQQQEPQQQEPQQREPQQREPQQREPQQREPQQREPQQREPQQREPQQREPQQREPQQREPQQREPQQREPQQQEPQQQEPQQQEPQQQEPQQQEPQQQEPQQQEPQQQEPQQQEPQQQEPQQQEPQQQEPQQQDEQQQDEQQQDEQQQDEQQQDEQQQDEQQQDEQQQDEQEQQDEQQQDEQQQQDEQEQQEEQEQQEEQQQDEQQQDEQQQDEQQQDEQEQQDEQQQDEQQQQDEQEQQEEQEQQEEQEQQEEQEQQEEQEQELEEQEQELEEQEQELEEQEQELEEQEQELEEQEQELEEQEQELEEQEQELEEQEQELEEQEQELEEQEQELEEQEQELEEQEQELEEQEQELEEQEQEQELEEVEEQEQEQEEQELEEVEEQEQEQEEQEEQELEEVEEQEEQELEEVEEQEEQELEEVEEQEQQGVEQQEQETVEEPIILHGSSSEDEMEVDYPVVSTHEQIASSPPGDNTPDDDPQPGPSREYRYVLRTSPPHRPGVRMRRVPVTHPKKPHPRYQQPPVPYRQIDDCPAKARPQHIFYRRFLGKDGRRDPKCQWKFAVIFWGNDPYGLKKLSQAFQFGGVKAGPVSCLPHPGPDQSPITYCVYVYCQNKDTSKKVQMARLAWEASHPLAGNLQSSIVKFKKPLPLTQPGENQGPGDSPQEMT
ALR H2O2 inh – human ALR oxidase inhibition via reduced H2O2. actives 3.8% (n = 290,000). P55789. purified ALR, DTT oxidation, H2O2 HRP-luminol luminescence. inhibition, % (concentration not given with the values);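 active = mean and each replicate at 75% or more; inconclusive = only one of the two met; inactive = neither met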;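 note: stock transfer was 7.5 nL into about 7.5 µL; 0% = neutral wells and 100% = wells with inactivated enzyme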
rRNA inh HTS OD600 – also measured in rRNA inh HTS; calls as there; OD600 change, %; measured here: OD600 growth;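 optical density of the mix in the first replicate; 0 = DMSO median and -100 = no signal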
rRNA inh HTS RFP – further read-out of rRNA inh HTS, marked with its call; RFP signal change, %; measured here: RFP humanized mutant strains;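 first replicate; 0 = DMSO median and -100 = no signal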
Numbers without * were called inactive; i = inactive; u = inconclusive; x = not tested or not shown.

structure	T cruzi inh	Calb FLC	rRNA inh HTS	rRNA inh HTS OD600	rRNA inh HTS RFP	Beta apoptosis	Beta2AR agonist	A1 inh	LANA-H2A inh	ALR H2O2 inh
Cc1cccc(NC(NC(=O)c2cccnc2)C(Cl)(Cl)Cl)c1 (stereo not drawn)	-1.7	-14.7	x	x	x	-9.7	6.3	0.1	1.2	12.9
Cc1ccc(-c2nnn(CC(=O)N(CCN3CCOCC3)C(C(=O)NC3CCCC3)c3ccncc3)n2)o1 (stereo not drawn)	3.3	1.1	4.4	5.3	-0.4	-0.2	-10.9	-0.6	-4.6	x
O=C1C2ON(c3ccccc3)C(c3cccnc3)C2C(=O)N1c1ccc(Cl)c(Cl)c1 (stereo not drawn)	10.5	8.6	x	x	x	x	-2.8	0.2	-3.9	-9.4
CC(NC(=O)CN1CCN(c2ccc(Cl)cc2)CC1)c1ccccc1 (stereo not drawn)	29.5	5.6	-27.2	-25.7	-4.9	-3.1	3.5	1.1	-2.6	x
CC(Sc1c[nH]c2ccccc12)C(=O)O (stereo not drawn)	-19.3	-2.9	x	x	x	-18.4	0.6	0.4	2.6	65.5
CCOC(=O)c1ccc(S(=O)(=O)N2CCN(CCc3ccncc3)CC2)cc1	x	x	-2.2	1.6	0.9	1.3	1.0	0.1	-3.9	-2.8
CC(=O)C1=C(O)C(=O)N(Cc2ccccc2)C1c1ccc(Cl)cc1 (stereo not drawn)	-3.5	-4.1	-3.8	-7.3	0.3	3.8	-0.7	0.1	-1.4	3.9
CCCCCOC(=O)Nc1ccc(S(=O)(=O)Nn2cnnc2)cc1	-26.7	13.1	4.1	8.7	8.8	7.8	-0.3	-0.7	-3.0	-0.6
CCC1CCC/C1=N\NC(=O)c1ccccc1C (stereo not drawn)	3.7	-4.2	15.8	16.1	-0.9	4.7	-7.3	0.2	3.8	-3.1
COc1cc(OC)c(C2=NOC(C(=O)NCc3cccs3)C2)cc1Cl (stereo not drawn)	9.7	9.9	8.9	12.2	-2.9	14.8	-3.9	0.3	1.9	-3.3
CCOc1ccc(C(=O)N(Cc2ccccc2)c2cccc(C)c2)cc1OC	19.0	19.9	-26.2	-42.7	-7.9	6.5	-2.7	-0.3	1.4	-1.3
COc1ccc(CCNC(=O)c2ccc(N(C)S(=O)(=O)c3ccc(C)cc3)cc2)cc1	45.8	u	5.5	1.4	-0.7	3.1	0.8	-0.7	-0.6	-2.6
CN(C)S(=O)(=O)c1cccc(C(=O)OCC(=O)NC2CCCc3ccccc32)c1 (stereo not drawn)	1.4	-7.4	1.4	-0.6	-12.1	1.5	3.3	0.6	-0.6	-1.3
CSCCC1NC2(C(=O)Nc3c2ccc(Cl)c3C)[C@@H]2C(=O)N(C3CCCC3)C(=O)[C@H]12 (stereo partly drawn)	12.4	54.8	-0.2	5.9	-2.2	4.3	-12.6	0.8	4.1	-6.4
COc1cc(C(=S)N2CCOCC2)cc(OC)c1OC(=O)c1ccc(C)cc1	5.0	-0.8	-5.0	-7.6	-5.0	-3.5	5.5	1.0	4.8	-7.5
Cc1cccc(NC(=O)c2cc3c(s2)-c2c(C)cccc2OC3)n1	12.9	-2.4	-1.3	-0.2	-1.4	12.4	-4.4	-12.0	4.0	-3.6
Cc1c(O)ccc(C(=O)COc2ccccc2F)c1O	-1.6	52.0	x	x	x	4.2	3.0	-1.8	-4.4	-5.2
CCN(CC)CCCN1C(=O)C(O)=C(C(=O)c2cc3cccc(OC)c3o2)C1c1ccncc1 (stereo not drawn)	-9.0	27.9	x	x	x	-3.2	1.9	0.5	-5.8	-6.8
O=C(Nc1ccncc1)c1cccc(S(=O)(=O)N2CCOCC2)c1	-4.1	-11.2	8.8	10.7	1.8	-3.2	-7.4	0.4	6.0	-0.9
N#C/C(=C\c1ccccc1)C(=O)NC(=O)Oc1ccccc1	-18.2	-3.6	12.0	8.5	-1.6	5.0	0.9	-0.2	-4.1	-1.5
COC(=O)Cc1c(C)nc2nc(-c3ccc(C)cc3)[nH]n2c1=O	-0.6	-6.5	x	x	x	4.1	-4.9	1.2	-4.6	67.9
O=c1oc2ccccc2n1CSc1nc2ccccc2s1	3.4	-7.0	x	x	x	3.0	1.8	0.5	1.5	-9.6
CCCCOc1ccc(C(=O)OC(C)CN(C)C)cc1 (stereo not drawn)	-0.5	-6.4	x	x	x	-2.5	5.2	0.0	6.7	0.3
CCOC(=O)C1=C(c2ccccc2)NC(=O)NC1c1cc(OC)c(O)c([N+](=O)[O-])c1 (stereo not drawn)	-16.0	7.6	9.7	8.8	7.5	-10.0	4.6	0.0	1.2	7.2
CCOC(=O)c1nc(N/N=C/c2ccccc2)sc1Br	-0.2	-4.6	3.2	4.8	0.7	x	15.8	-0.3	1.4	4.0

Another view of some results above:
CCN(CC)CCCN1C(=O)C(O)=C(C(=O)c2cc3cccc(OC)c3o2)C1c1ccncc1 (stereo not drawn)
  T cruzi inh: -9.0; Calb FLC: 27.9; rRNA inh HTS: x; rRNA inh HTS OD600: x; rRNA inh HTS RFP: x; Beta apoptosis: -3.2; Beta2AR agonist: 1.9; A1 inh: 0.5; LANA-H2A inh: -5.8; ALR H2O2 inh: -6.8

O=C(Nc1ccncc1)c1cccc(S(=O)(=O)N2CCOCC2)c1
  T cruzi inh: -4.1; Calb FLC: -11.2; rRNA inh HTS: 8.8; rRNA inh HTS OD600: 10.7; rRNA inh HTS RFP: 1.8; Beta apoptosis: -3.2; Beta2AR agonist: -7.4; A1 inh: 0.4; LANA-H2A inh: 6.0; ALR H2O2 inh: -0.9

Additional records follow:
structure	T cruzi inh	Calb FLC	rRNA inh HTS	rRNA inh HTS OD600	rRNA inh HTS RFP	Beta apoptosis	Beta2AR agonist	A1 inh	LANA-H2A inh	ALR H2O2 inh
Cc1ccnc(N2C(=O)c3ccccc3C2=O)c1	-1.3	-0.7	12.3	11.8	-1.7	-13.6	-6.4	0.3	-1.1	4.2
O=C(CN1CCN(c2ccc(O)cc2)CC1)NCC(=O)Nc1ccc(F)c(F)c1F	x	x	11.5	4.1	0.6	-3.1	-3.7	-0.3	0.1	92.5*
C/C(=N\Nc1ccc(C#N)cc1[N+](=O)[O-])c1ccc(O)cc1	-9.8	-6.1	3.3	8.1	-2.7	10.5	-3.3	-0.5	1.7	7.2
CCOc1ccc(Br)cc1C(=O)N/N=C/c1c[nH]c2ccccc12	-7.4	5.6	9.9	6.6	3.8	-3.3	-8.5	1.2	-2.3	-9.0
OC(COc1ccc2cc(Br)ccc2c1)CN1CCN(c2ccccn2)CC1 (stereo not drawn)	26.8	16.3	x	x	x	2.8	0.8	-0.3	-5.7	x
Cc1n[nH]c(=O)c2c(NC(=O)CSc3nnnn3-c3ccccc3)oc(C)c12	3.7	x	6.4	18.4	0.4	-4.1	-6.1	0.3	5.1	-6.7
COc1ccccc1NC(=O)Cn1nnc(-c2ccccc2NC(=O)c2cccs2)n1	14.1	x	x	x	x	-4.2	-6.9	0.7	-2.4	-17.0
COc1ccccc1OCCOc1ccc(C(=O)c2ccccc2)cc1	-3.9	14.8	-8.1	-10.9	2.3	2.4	-6.9	-0.9	4.8	-2.7
CC(OC(=O)CCN=C1NS(=O)(=O)c2ccccc21)C(=O)Nc1ccc(F)cc1Cl (stereo not drawn)	-4.6	5.7	6.5	1.2	1.2	-4.9	-1.0	0.7	5.3	-12.4
O=c1oc2ccccc2c2c1ncn2-c1ccccc1	1.0	23.9	x	x	x	2.8	-5.3	-0.5	10.0	10.1
CCOC(=O)Cc1cc(=O)n2[nH]c(C)c(-c3ccc(OC)cc3)c2n1	-1.3	8.0	x	x	x	-8.1	-0.4	0.4	1.4	91.3*
COc1ccc(NC(=O)CN(c2ccccc2)S(=O)(=O)N(C)C)cc1Cl	-16.7	0.2	-12.8	-15.0	-0.2	x	-4.3	1.4	2.1	-50.4
CC(=O)/C=C\c1ccc(OC(=O)c2cccnc2)cc1	-3.4	4.5	4.5	7.6	-0.9	1.6	-5.7	0.7	1.8	-41.0
CCCCN(C(=O)CC1CCCCC1)c1c(N)n(CC(C)C)c(=O)[nH]c1=O	x	x	4.1	7.3	-1.2	-3.2	-6.7	-0.8	71.1*	-2.2
Cc1ccc(S(=O)(=O)NC(C)C(=O)Nc2ccc(C(N)=O)cc2)cc1 (stereo not drawn)	3.2	-7.4	x	x	x	-4.1	4.1	0.4	-1.6	-3.5
Cc1ccc(NC(=O)Cn2nnc(C(=O)Nc3ccc(C)c(C)c3)c2N)cc1	7.9	-25.9	x	x	x	1.3	1.8	1.6	-1.0	-6.7
CC12CCC(=O)N1C(C(=O)OCC(=O)Nc1cc(S(=O)(=O)N3CCCCC3)ccc1Cl)CS2 (stereo not drawn)	7.3	-2.6	x	x	x	-5.8	2.5	0.4	-1.8	-14.1
CCOC(=O)CSc1nnc(CNc2cccc(Cl)c2)n1-c1ccccc1	-10.8	-0.6	x	x	x	-7.4	7.3	-0.3	-4.5	-6.9
CCOC(=O)C(C)Sc1nc2c(c(=O)[nH]c(=O)n2C)n1CCc1ccccc1 (stereo not drawn)	x	7.9	x	x	x	9.0	16.4	-0.5	-0.8	-3.2
COC(=O)[C@]1(Cc2ccccc2)N[C@H](CN(C)C(=O)Nc2ccc(F)cc2)[C@@H]2C(=O)N(Cc3ccccc3)C(=O)[C@@H]21	x	x	2.2	12.4	4.5	-4.2	13.6	0.2	i	-1.8
CC(C)C1Nc2ccc(C(=O)O)cc2C2C=CCC21 (stereo not drawn)	4.5	1.9	14.6	5.6	4.6	0.1	2.3	0.1	5.6	-8.6
CS(=O)(=O)Nc1cccc(C2=NN(S(C)(=O)=O)C(c3ccccc3)C2)c1 (stereo not drawn)	15.6	15.4	4.7	8.8	-1.8	-3.5	4.6	1.4	-2.0	-3.0
CCOc1ccc(CCNC(=O)Cn2ccc3cc(S(=O)(=O)N4CCCC4)ccc32)cc1	4.0	-13.9	12.4	9.1	1.7	1.1	-8.2	0.5	-5.6	-2.6

High-throughput results from PubChem.

Some of the compounds tested; count on the stated rates, not on these rows.
